Mtb growth = M. tuberculosis H37Rv growth inhibitors, H37Rv strain (AID 1626). M. tuberculosis H37Rv growth inhibition; higher % means a stronger effect. hit rate 0.95% among 220,000. one-dose inhibition, % at 10 µM; IC50 in µM for titrated hits;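 active means confirmed in a dose series; inconclusive means inhibition above 80% but not taken into the dose series; inactive means below 80% or under 30% at every dose of the series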;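 further: bacteria incubated seven days before Alamar blue readout; 0% = bacteria only wells and 100% = bacteria with antibiotic wells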
Arbovirus inh = antivirals against arbovirus infection, primary screen, cell-based, full library, 10K replicate subset | arbovirus infection cell-based antiviral screen | inhibition, % at 10 µM | hit rate 0.37% among 200,000 | AID 1251, 2008;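 active means inhibition from about 30%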;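 further: bluetongue infection of BSR cells; cell survival read as ATP light after 72 h; 0% = infected wells without compound and 100% = uninfected wells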
RecA splice inh = Mtb RecA intein splicing inhibitors, primary screen, biochemical, fluorescence, HTS | cell-free RecA intein splicing | AID 2221, 2009 | hit rate 0.75% among 290,000 | inhibition, %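 (about 9 µM by stock and volumes)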 | Protein RecA (Mycobacterium tuberculosis (strain ATCC 25618 / H37Rv)), P9WHJ3; in the data active means inhibition above about 30%; inconclusive means no clear call, values can overlap the other calls;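 further: 0% = vehicle wells and 100% = reference inhibitor control wells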
Target sequence (P9WHJ3 whole entry, looked up, canonical isoform): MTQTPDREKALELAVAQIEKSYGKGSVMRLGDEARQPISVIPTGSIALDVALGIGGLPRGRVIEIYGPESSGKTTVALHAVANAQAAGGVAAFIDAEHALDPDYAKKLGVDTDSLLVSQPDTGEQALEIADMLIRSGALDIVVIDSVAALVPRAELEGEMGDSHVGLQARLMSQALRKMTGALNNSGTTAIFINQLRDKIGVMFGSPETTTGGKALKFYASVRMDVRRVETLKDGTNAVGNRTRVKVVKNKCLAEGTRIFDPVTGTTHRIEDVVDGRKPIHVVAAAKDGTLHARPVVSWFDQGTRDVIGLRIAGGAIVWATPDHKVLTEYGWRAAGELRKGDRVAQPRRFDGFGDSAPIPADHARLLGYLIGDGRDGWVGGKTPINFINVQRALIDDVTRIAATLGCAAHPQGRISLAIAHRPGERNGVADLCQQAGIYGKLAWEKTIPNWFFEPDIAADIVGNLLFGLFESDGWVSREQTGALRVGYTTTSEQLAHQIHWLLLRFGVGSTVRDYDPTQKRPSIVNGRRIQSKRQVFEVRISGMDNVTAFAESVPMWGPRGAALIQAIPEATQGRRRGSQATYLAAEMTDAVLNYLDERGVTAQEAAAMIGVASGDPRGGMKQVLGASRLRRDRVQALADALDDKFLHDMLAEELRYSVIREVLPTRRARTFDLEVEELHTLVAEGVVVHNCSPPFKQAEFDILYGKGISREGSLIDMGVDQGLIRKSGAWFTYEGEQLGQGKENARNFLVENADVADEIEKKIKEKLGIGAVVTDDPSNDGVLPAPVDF
Mtb bLac sens = beta-lactam sensitization of Mtb H37Rv, H37Rv; M. tuberculosis H37Rv growth with meropenem, percent inhibition; hits of this screen are not shown here; inhibition, % at 25 µM; hit rate 0.27% among 330,000; AID 434955, 2010;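 active means about 74% or more and at least 40 points above the plate without the antibiotic, then above 30% in a dose series; inconclusive means first-round hits that could not be retested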;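 further: growth measured after seven days incubation then overnight dye step; 0% = bacteria only wells and 100% = bacteria with antibiotic; twin plates without the antibiotic show which effects depend on it; some results filed as inactive read as strong as hits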
YopH PTP inh = YopH tyrosine phosphatase inhibitors, primary screen, biochemical, fluorescence Ex485/Em525 | YopH tyrosine phosphatase [Yersinia enterocolitica] | inhibition, %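 (about 10 µM by stock and volumes)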 | AID 898, 2007 | hit rate 0.16% among 140,000;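 active means inhibition of 50% or more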;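 further: controls were vehicle for no effect and minimum signal wells for full effect; inactives centre near -20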
Arbovirus inh repeat = recorded beside Arbovirus inh, whose call it bears; inhibition, %; measured here: 10K subset replicate screen; many hits read low in the repeat;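 first of two repeat runs on a subset; 0% = infected and 100% = uninfected wells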
* = called active by the depositor; ? = inconclusive; nt = not tested or not shown.

SMILES	Mtb growth	Arbovirus inh	RecA splice inh	Mtb bLac sens	YopH PTP inh	others
O=C(c1cc(F)c(F)cc1Cl)N1CCCc2ccccc21	nt	nt	-4.1	3	nt
COc1ccc(NC(=O)CCS(=O)(=O)c2ccc3c(c2)CCCN3C(C)=O)cc1Cl	-4%	6	2.0	4	-21
O=C(Nc1cccc2ncccc12)c1ccccc1F	nt	nt	2.5	-3	nt
Cc1ccc(CN2CC(C(=O)Nc3ccc4c(C)cc(=O)oc4c3)CC2=O)cc1 (centres undefined)	-9%	-2	-2.2	-10	-22
Cc1cc(S(=O)(=O)Nc2nc(CN3CCOCC3)nc3sc4c(c23)CCCC4)ccc1F	nt	3	1.0	59	-37
O=C(O)CCC(=O)Nc1ccc(Cc2ccc(NC(=O)CCC(=O)O)c(O)c2)cc1O	-3%	12	-3.3	-11	-23
CC1CCCN(c2cc(N(C)CCO)c([N+](=O)[O-])c3nonc23)C1 (centres undefined)	3%	0	7.1	-3	nt
O=C(Nc1ccc2c(c1)OCO2)c1cccc(S(=O)(=O)N2CCOCC2)c1	nt	nt	3.2	-9	nt
Cc1nnc2n(-c3ccccc3)c(=O)c3c4c(sc3n12)COC(C(C)C)C4 (centres undefined)	10%	-4	-0.7	-11	18
CCOc1ccccc1NC(=O)CN1CCC(NC(=O)Nc2ccccc2)CC1	nt	nt	3.1	8	nt
COc1ccccc1-c1nc(C#N)c(NCCCn2ccnc2)o1	-4%	nt	-2.0	-7	nt
CC(=O)NC(CC(=O)Nc1nc(-c2ccccc2)c(C(C)=O)s1)c1ccccc1 (centres undefined)	nt	nt	5.2	3	nt
CCCn1c(SCC(=O)C(C)(C)C)nc2ccccc21	4%	-6	12	-4	nt
O=C(CN1C(=O)COc2ccccc21)NCCCN1CCc2ccccc2C1	-3%	8	1.6	3	17
COc1coc(C(O)CN)cc1=O (centres undefined)	1%	2	-2.3	0	13
CCc1cccc2c(C(=O)Cn3nnc(-c4ccc(OC)c(OC)c4)n3)c[nH]c12	nt	-3	0.8	-2	-4
C/C(=N\Nc1nc(C)cc(-c2ccccc2)n1)c1ccc(F)cc1	nt	nt	-0.4	4	nt
Cc1ccc(OCC(=O)c2cc(C)n(CC(F)(F)F)c2C)c([N+](=O)[O-])n1	-3%	-9	-9.7	1	nt
O=C(c1ccc(N2CCN(C(=O)c3ccc(F)c(F)c3)CC2)cc1)c1cccc(F)c1	nt	nt	3.1	14	nt
Cn1c(=O)c2c(ncn2Cc2cc(-c3ccccc3)no2)n(C)c1=O	2%	-5	1.8	-8	-21
CCOC(=O)C(C)N1CC(=O)N(c2ccccc2)C1=O (centres undefined)	nt	nt	0.0	-4	nt
Cc1cccc(CCNC(=O)c2cccc(N3CCCC3=O)c2)c1	nt	nt	-0.8	1	nt
O=C(NCCN1C(=O)C2C3C=CC(C3)C2C1=O)NCc1ccccc1 (centres undefined)	10%	2	1.9	2	nt	Arbovirus inh repeat=1
CCOC(=O)Cc1csc(NC(=S)NC(=O)c2ccc(F)cc2)n1	nt	9	1.2	-4	-14
CCOC(=O)C1(Cc2ccccc2)CCN(Cc2ccc3cc(NC(C)=O)ccc3n2)CC1	2%	-6	-1.6	5	nt
Cc1ccc2[nH]c(=O)c(-c3nc4c(C)cccn4c3NCc3ccco3)cc2c1	-4%	-4	-3.9	2	-36
O=C(NCCN1CCN(c2ccccc2)CC1)c1ccc(NC(=O)C2CCCO2)cc1 (centres undefined)	5%	5	0.0	-2	-19	Arbovirus inh repeat=5
CC(C)C(=O)NCCCc1ccccc1	4%	3	-2.5	-2	3
O=C(CCl)NCCCN(C(=O)C(Cl)Cl)c1ccc([N+](=O)[O-])cc1	8%	nt	9.7	95	nt
CCN(CC)CCN(C(=O)Cn1nnc(-c2ccc(OC)c(OC)c2)n1)C(C(=O)NC1CCCC1)c1ccc(F)cc1 (centres undefined)	-13%	-19	-0.5	-2	-30
CCS(=O)(=O)NC(C)C(c1cccs1)N1CCN(c2ccc(OC)cc2)CC1 (centres undefined)	0%	13	1.0	-2	nt
CN1C(=O)NC(c2ccccc2[N+](=O)[O-])C2=C1CC(C)(C)CC2=O (centres undefined)	nt	nt	0.2	-11	nt
O=C(CCC1CCCN(C2C3CC4CC(C3)CC2C4)C1)NCc1ccc(F)c(F)c1 (centres undefined)	-2%	-11	0.1	-8	nt
Cc1ccc(N=C2NC(=O)C(CC(=O)NCc3ccccc3)S2)cc1C (centres undefined)	-2%	0	-0.3	0	-23
Cc1cc(NC(=O)CS(=O)CC(=O)Nc2c(C)cccc2C)ccc1-n1cnnn1 (centres undefined)	nt	nt	-1.5	-11	nt
O=C(NCc1ccccn1)C1(C(F)(F)F)C/C(=C\CCO)CCCO1 (centres undefined)	-5%	nt	1.3	-1	nt
NC(=O)CCC(NS(=O)(=O)c1ccc(Cl)cc1)C(=O)NCc1ccc(Cl)cc1 (centres undefined)	3%	8	2.4	0	-2
Cc1ccc(-c2nn3c(C)nnc3s2)cc1NC(=O)C(C)C	-7%	3	-0.3	-8	-37	Arbovirus inh repeat=0
COc1ccc(-c2nnn(CC(=O)N(CCCO)C(C(=O)NC3CCCC3)c3ccc(F)cc3)n2)cc1 (centres undefined)	-4%	-1	0.8	5	nt
NC(=S)NNc1cccc(Cl)c1	22%	-11	0.9	100	-15
NC1=NC(=O)C(Cc2ccc(OC(F)(F)F)cc2)S1 (centres undefined)	nt	nt	-3.4	9	nt
COc1ccc(N(CC(=O)Nc2cc(C(=O)O)ccc2C)S(=O)(=O)c2c(C)noc2C)cc1	-10%	-6	1.0	1	-42
CC(C)N(Cc1cc2ccccc2[nH]c1=O)C(=O)c1cccnc1	-8%	6	1.5	-6	-24
CCOC(=O)c1c(NC(=O)CSc2nnc(-c3ccco3)o2)sc(C)c1C	-9%	5	-1.4	-19	5
Cc1cc(C)nc(N2CCC(C(=O)O)CC2)n1	-1%	12	nt	-3	-12
CCC/C(=C1/C(=O)CC(C)(C)C(C(=O)OC)C1=O)N1CCCC1 (centres undefined)	4%	2	7.1	-4	-41	Arbovirus inh repeat=4
CCOC(=O)N1CCC(NC(=S)Nc2ccc3nc(N4CCN(C)CC4)cc(C)c3c2)CC1	9%	-3	-0.4	6	nt
COc1cccc(CNC(=O)Cn2cccc2)c1	nt	0	0.1	-7	-55
Cc1cc(C)c(S(=O)(=O)NCc2ccncc2)c(C)c1	-4%	6	4.6	-6	0
CCOc1ccc(C(=O)Nc2ccc3[nH]ncc3c2)cc1	nt	nt	-2.2	1	nt
CCC1(c2ccccc2)NC(=O)N(CC(=O)N2CCN(S(=O)(=O)c3ccccc3)CC2)C1=O (centres undefined)	-6%	1	3.2	?	-13
O=C(Nc1c(C(=O)NCc2ccco2)cnn1-c1ccccc1)c1ccc(F)cc1	0%	1	-1.6	-6	-33	Arbovirus inh repeat=6
NS(=O)(=O)c1ccc(NC(=O)Nc2ccc3c(c2)OCO3)cc1	nt	nt	1.1	-3	nt
Cc1cc(=O)n(C)c(=O)n1CCCCCCN1CCCC1	-5%	2	-0.3	2	-18
O=C(CCN1C(=O)C2(OCCO2)c2ccccc21)c1ccccc1	2%	1	1.7	0	-14
CC(C)COc1ccc(C(=O)N/N=C/c2ccoc2)cc1	nt	nt	1.6	-4	nt
Cc1ccccc1-c1nnc(SCC(=O)Nc2c(C)n(C)n(-c3ccccc3)c2=O)o1	-1%	nt	-2.9	-1	6
Cc1ccc(S(=O)(=O)c2c(C)cc(-c3ccccc3)[nH]c2=O)cc1	0%	3	0.8	-1	-36
O=[N+]([O-])c1cc(Cl)ccc1N1CCCCC1	-4%	7	-0.2	-1	nt
Cc1c(/C=C(\C#N)C(=O)NCc2ccccc2)cc(C#N)n1C	nt	nt	-4.7	5	nt

New compounds follow
SMILES	Mtb growth	Arbovirus inh	RecA splice inh	Mtb bLac sens	YopH PTP inh	others
Cc1nnc(SCc2ccccn2)n(N)c1=O	3%	0	-7.1	-9	nt
CC(CN1CCCC1)OC(=O)c1ccc(Cl)cc1Cl (centres undefined)	nt	nt	0.8	-1	nt
Cc1ccsc1/C=C1/SC(=O)N(CC(=O)N2CCCC2)C1=O	nt	nt	-0.6	-2	nt
CSc1ccccc1NC(=O)Cn1nnc(-c2ccc(S(C)(=O)=O)cc2)n1	nt	-7	nt	8	nt
COc1ccc(-n2c(SC3CCOC3=O)nc3ccccc3c2=O)cc1OC (centres undefined)	-3%	2	1.8	-15	-24
O=C(Nc1ccccc1C(F)(F)F)NC1CCCCC1	-8%	4	nt	3	-7
Cc1ccc(C(=O)NNC(=O)C2CCN(Cc3ccccc3)CC2)cc1	-7%	10	-2.0	-3	-13
Cn1cccc1C(C#N)c1cccc(F)c1C#N (centres undefined)	0%	-6	10	0	nt
COc1ccc(S(=O)(=O)NCc2ccccn2)cc1NC(=O)c1ccc(Cl)cc1	nt	nt	2.3	-3	nt
c1cc2c(c(NCc3ccncc3)c1)CCCC2	nt	-30	nt	0	-42
COC(=O)C1=C(N)Oc2c(oc(CO)cc2=O)C1c1ccccc1F (centres undefined)	6%	-2	-0.8	-8	4
CCN(CC(=O)NCc1cccs1)S(=O)(=O)c1ccc(F)c(F)c1F	nt	nt	-0.6	-4	nt
COc1cccc(CNC(=O)c2ccc(C)c(S(=O)(=O)N3CCOCC3)c2)c1	nt	nt	0.3	-15	nt
N=C1C(c2nc3ccccc3c(=O)[nH]2)=C(O)CN1CCc1ccccc1	4%	-1	1.7	-3	nt	Arbovirus inh repeat=-8
C=CCn1c(SCC(=O)c2cccs2)nc2sc(C)c(C)c2c1=O	14%	21	4.2	-2	-14
COc1ccc(C)cc1NC(=O)CSc1nnc(COc2ccccc2)n1Cc1ccco1	nt	0	9.8	-2	-22
C/C(=N\N=C1\NC(=O)C(Cc2ccccc2)S1)c1ccccc1 (centres undefined)	?	23	0.5	85	nt
C=CCOC(=O)C1=C(C)NC(C)=C(C(=O)OCC=C)C1c1ccco1	7%	nt	2.6	0	nt
CCOC(=O)c1sc(NC(=O)c2ccccc2OC)nc1C	-1%	-15	2.0	-6	-12
COC(=O)c1cc2n(n1)CCN(Cc1ccc(OC)cc1)C2=O	-5%	0	-3.4	-12	-22
Cc1cc(C)c2cc3c(N)c(C(=O)N4CCOCC4)sc3nc2c1	2%	-4	-3.3	-8	nt
O=C(NCCCCCCOC1=NS(=O)(=O)c2ccccc21)C(=O)Nc1ccccc1	9%	7	-0.7	8	nt

Compounds listed so far containing an aryl methoxy group (15):
SMILES	Mtb growth	Arbovirus inh	RecA splice inh	Mtb bLac sens	YopH PTP inh	others
COc1ccc(NC(=O)CCS(=O)(=O)c2ccc3c(c2)CCCN3C(C)=O)cc1Cl	-4%	6	2.0	4	-21
COc1ccccc1-c1nc(C#N)c(NCCCn2ccnc2)o1	-4%	nt	-2.0	-7	nt
COc1coc(C(O)CN)cc1=O (centres undefined)	1%	2	-2.3	0	13
CCc1cccc2c(C(=O)Cn3nnc(-c4ccc(OC)c(OC)c4)n3)c[nH]c12	nt	-3	0.8	-2	-4
CCN(CC)CCN(C(=O)Cn1nnc(-c2ccc(OC)c(OC)c2)n1)C(C(=O)NC1CCCC1)c1ccc(F)cc1 (centres undefined)	-13%	-19	-0.5	-2	-30
CCS(=O)(=O)NC(C)C(c1cccs1)N1CCN(c2ccc(OC)cc2)CC1 (centres undefined)	0%	13	1.0	-2	nt
COc1ccc(-c2nnn(CC(=O)N(CCCO)C(C(=O)NC3CCCC3)c3ccc(F)cc3)n2)cc1 (centres undefined)	-4%	-1	0.8	5	nt
COc1ccc(N(CC(=O)Nc2cc(C(=O)O)ccc2C)S(=O)(=O)c2c(C)noc2C)cc1	-10%	-6	1.0	1	-42
COc1cccc(CNC(=O)Cn2cccc2)c1	nt	0	0.1	-7	-55
COc1ccc(-n2c(SC3CCOC3=O)nc3ccccc3c2=O)cc1OC (centres undefined)	-3%	2	1.8	-15	-24
COc1ccc(S(=O)(=O)NCc2ccccn2)cc1NC(=O)c1ccc(Cl)cc1	nt	nt	2.3	-3	nt
COc1cccc(CNC(=O)c2ccc(C)c(S(=O)(=O)N3CCOCC3)c2)c1	nt	nt	0.3	-15	nt
COc1ccc(C)cc1NC(=O)CSc1nnc(COc2ccccc2)n1Cc1ccco1	nt	0	9.8	-2	-22
CCOC(=O)c1sc(NC(=O)c2ccccc2OC)nc1C	-1%	-15	2.0	-6	-12
COC(=O)c1cc2n(n1)CCN(Cc1ccc(OC)cc1)C2=O	-5%	0	-3.4	-12	-22

A portion of the library; count on the stated rates, not on these rows.
